H5N1 antiviral = MDCK cell protection from H5N1 avian flu; cytopathic effect, luminescence, 72 h; active compounds read high; no value below 0 was filed and about half of the inactive calls have no number; reference of the scale not given here; inhibition, % at 50 µM; actives 0.07% (n = 96,000); in the data active means inhibition above about 25%
Active calls of the source: *; i = inactive. Only part of the results is shown; rates above refer to the full screens.

SMILES	H5N1 antiviral
COC(=O)CN(c1cc(C(F)(F)F)ccc1Cl)S(C)(=O)=O	0.1
CCOc1ccc(OCC)c(NC(=O)C2CCN(S(=O)(=O)c3cccc4nonc34)CC2)c1	0.5
COc1cc(-c2nnc(COC(=O)c3c4c(nc5ccccc35)CCCC4)o2)cc(OC)c1OC	0.4
COc1ccc(S(=O)(=O)N(C)CC(=O)NCc2cccnc2)cc1OC	2.9
Cc1cc(C(F)(F)F)nn1CC(=O)N1CCCCC1C (stereo unspecified)	i
COCCN1CC(=O)N(c2cccc(C)c2C)C(c2ccc(Cl)cc2)C1=O (stereo unspecified)	0.2
O=C(Nc1cccc2[nH]ncc12)c1ccc(F)cc1	0.5
Cc1ccccc1Cn1cccc1/C=C1/C(=N)N2C=CSC2=NC1=O	0.4
COc1ccccc1NC(=O)C1=C(C)Nc2nnnn2C1c1ccccc1OC (stereo unspecified)	i
CCC(SC1=N/C(=C/c2ccccc2OC)C(=O)N1c1ccccc1)C(=O)Nc1cc(C)on1 (stereo unspecified)	i
O=C(C1CCCN(c2ncccn2)C1)N1CCc2ccccc21 (stereo unspecified)	0.8
Cc1ccc(-c2ccc(/C=C(\C#N)C(=O)Nc3cc(C)nn3-c3ccccc3)o2)cc1	0.2
COc1ccc(CC(=O)N2CCN=C2SC)cc1	0.2
CC(C)Oc1ccc(CCc2n[nH]c(=S)n2Cc2ccccc2)cc1	0.1
Cc1nc2nc(Cc3ccccc3)nn2c(C)c1Cl	1.4
N#CCCn1cnc2c(=S)nc[nH]c21	0.1
Cc1c(NC2(c3nnnn3-c3ccc(Br)cc3)CCCCC2)c(=O)n(-c2ccccc2)n1C	i
O=C(Nc1ccccc1)N1CCN(c2ncccn2)CC1	i
CCc1ccc(NC(=O)N(CCN(C)C)C(C)c2cccnc2)cc1 (stereo unspecified)	1.5
O=C(O)c1cccc(NC(=O)C2CC(=O)N(Cc3ccccc3)C2)c1 (stereo unspecified)	i
O=C(CCCSc1ccccc1)Nc1nc(-c2ccccn2)cs1	1.0
OCCN(Cc1ccccc1)Cc1cccc(F)c1	i
CCNC(=O)/N=C1/NC(=O)C(C(C)C)O1 (stereo unspecified)	i
O=C(Nc1cc(C(F)(F)F)ccc1Cl)C1CCN(c2nnc(-n3cccc3)s2)CC1	i
CN(C)c1ccc(CN(C(=O)C2COc3ccccc3O2)C2CCS(=O)(=O)C2)cc1 (stereo unspecified)	0.5

Of the compounds above, these have a Cl atom:
SMILES	H5N1 antiviral
COC(=O)CN(c1cc(C(F)(F)F)ccc1Cl)S(C)(=O)=O	0.1
COCCN1CC(=O)N(c2cccc(C)c2C)C(c2ccc(Cl)cc2)C1=O (stereo unspecified)	0.2
Cc1nc2nc(Cc3ccccc3)nn2c(C)c1Cl	1.4
O=C(Nc1cc(C(F)(F)F)ccc1Cl)C1CCN(c2nnc(-n3cccc3)s2)CC1	i

Returning to the listing with the six entries that preceded the break.
SMILES	H5N1 antiviral
O=C(O)c1cccc(NC(=O)C2CC(=O)N(Cc3ccccc3)C2)c1 (stereo unspecified)	i
O=C(CCCSc1ccccc1)Nc1nc(-c2ccccn2)cs1	1.0
OCCN(Cc1ccccc1)Cc1cccc(F)c1	i
CCNC(=O)/N=C1/NC(=O)C(C(C)C)O1 (stereo unspecified)	i
O=C(Nc1cc(C(F)(F)F)ccc1Cl)C1CCN(c2nnc(-n3cccc3)s2)CC1	i
CN(C)c1ccc(CN(C(=O)C2COc3ccccc3O2)C2CCS(=O)(=O)C2)cc1 (stereo unspecified)	0.5
CCCC(=O)NC(C)c1nc2ccccc2n1C (stereo unspecified)	0.3
COCCN(CCOC)Cc1cc(=O)oc2cc3c(cc12)CCC3	1.7
CCOc1ccccc1C1C(C(=O)Nc2ccc(OC)cc2)=C(C)Nc2nc(CCCO)nn21 (stereo unspecified)	i
COc1ccc(Cl)cc1C(=O)N(Cc1nc(-c2cccc(C)c2)no1)C(C)C	4.7
Cc1ccc2[nH]c(=O)c(-c3nc4cc(C)ccn4c3NCc3ccco3)cc2c1	i
Cc1cccc(OCC(=O)Nc2ccc(N3CCN(C(=O)c4ccco4)CC3)cc2)c1	i
CCN(CC(=O)Nc1cccc(OC)c1)C(=O)C1CCN(C(=O)Nc2ccccc2)CC1	i
CC(C)COc1ccc(-c2nnc(-c3ccco3)o2)cc1	i
COc1ccc(NC(=O)c2nnn(Cc3cccc(F)c3)c2N)c(OC)c1	0.4
CC1CC(=O)Nc2ccccc2S1(=O)=O (stereo unspecified)	2.3
O=C(CCCCCN1C(=O)c2ccccc2C1=O)NC1CCCC1	0.4
COc1ccc(C2C(C(=O)c3sc(C)nc3C)=C(O)C(=O)N2CCN(C)C)cc1OC (stereo unspecified)	0.3
CCn1c(SCC(=O)c2c[nH]c3ccccc23)nnc1-c1cccs1	0.1
CCc1cccc(NC(=O)Cn2c(=O)oc3cc(S(=O)(=O)N4CCOCC4)ccc32)c1	i
Fc1cc(Br)ccc1NC(=S)NCCc1ccccc1	i
Cc1nc(NC(C)c2ccccc2)c2c3c(sc2n1)CCC3 (stereo unspecified)	0.8
Cc1ccc(OCCCn2c(CO)nc3ccccc32)cc1	i
O=C(O)CC(C(=O)OCC1CCCO1)N1CCOCC1 (stereo unspecified)	i
CCCCCCn1ccc(=N)cc1	i
CCOC(=O)c1sc(C)c(C(=O)NCC(C)(C)CN(C)C)c1N	0.7
COc1cccc(NS(=O)(=O)c2cn(C)c(=O)n(C)c2=O)c1	1.6
CCOC(=O)CP(=O)(c1ccccc1)c1ccccc1	i
Cn1c(NC(=O)c2cccs2)c(-c2cccs2)c(=O)c2ccccc21	0.3
CCOC(=O)c1c(C)[nH]c(C(=O)Cn2nnc(-c3ccccc3)n2)c1C	i
O=C(NCc1ccco1)C1CCCN1S(=O)(=O)c1ccc2ccccc2c1 (stereo unspecified)	i
The results go on.
SMILES	H5N1 antiviral
COC(=O)c1cc(=O)n(Cc2ccc3c(c2)OCO3)c(=Nc2ccc(F)c(Cl)c2)s1	i
O=C(NCCc1ccccc1)C1(c2ccccc2)CC1(Cl)Cl (stereo unspecified)	0.1
CC(C)C(=O)N(Cc1ccc2c(c1)OCO2)Cc1ccccn1	i
CCCCC(CC)CNC(=O)c1cccs1 (stereo unspecified)	1.1
O=C1CC(N2CCN(c3ccccc3)CC2)C(=O)N1CCc1ccccc1 (stereo unspecified)	i
Cc1ccsc1C(=O)Nc1ccccc1N1CCOCC1	0.0
COc1nc(N)c(S(=O)(=O)c2ccccc2C)cc1C#N	0.2
Cc1nc2ccccc2n1CC(=O)OCC(=O)Nc1ccc2c(c1)OCCO2	0.9
CC(C)(C)C(=O)CNS(=O)(=O)c1ccc(S(=O)(=O)NC2CCCC2)cc1	0.8
Nc1nc(Br)c2ccccc2c1-c1ccc(F)cc1	i
COc1cccc(C2CC(c3ccccc3)n3ncnc3N2)c1 (stereo unspecified)	0.6
CCOCCCNC(=O)C1CCCN1C(=O)NC1CCCCC1 (stereo unspecified)	0.3
O=C(Cn1cc(C(=O)c2cccs2)c2ccccc21)NCc1cccs1	2.2
CC1CCN(CC(C)OC(=O)c2ccc3c(c2)OCCO3)CC1 (stereo unspecified)	i
Clc1ccc(Cn2ncc3c(N4CCCC4)ncnc32)cc1	i
O=C(NCCN1CCOCC1)c1cccc(S(=O)(=O)N2CCCCCC2)c1	0.6
CCC(Sc1nc2ccc(C)cc2[nH]1)C(=O)O (stereo unspecified)	i
O=S(=O)(NCCc1ccc2c(c1)OCCO2)c1cccs1	0.9
Cc1cc(/C=C2\SC(=S)NC2=O)c(C)n1C1CC1	0.4
CC1CCN(C(=O)Cn2c(=O)n(Cc3ccc4c(c3)OCO4)c(=O)c3ccccc32)CC1	i
COC(=O)c1ccc(C)c(NC(=O)c2nn(C)c(=O)c3ccccc23)c1	2.2
Cc1ccc(Nc2nc(-c3c(C)nc4ccccn34)cs2)cc1	3.5
CC(=O)Nc1ccc(NC(=O)C/C(C)=N/NC(=O)C(=O)N2CCCC2)cc1	0.5
N#Cc1ccsc1NC(=O)c1cnccn1	0.9
O=C(CCS(=O)(=O)c1cccc2nsnc12)N1CCN(c2ccccc2F)CC1	i
The list continues:
SMILES	H5N1 antiviral
CCC(=O)NC(=S)Nc1ccccc1OC	i
c1ccc(OCCCn2nnc(-c3cccnc3)n2)cc1	i
Cc1cc([N+](=O)[O-])nn1Cc1ccccc1F	1.1
CC(=O)C1=C(O)C(=O)N(CCN2CCOCC2)C1c1ccccc1 (stereo unspecified)	0.3
COc1ccc(C(C)=O)cc1CN1C(=O)C(C)N(c2ccc(C)cc2)C1=O (stereo unspecified)	1.3
c1coc(Cn2c(SCc3nc4ccccc4[nH]3)nnc2-c2cccs2)c1	i
COc1ccc(CC(C)N2CCN(c3ccccc3)CC2)cc1OC (stereo unspecified)	0.6
O=C1OC(c2ccccc2)=C/C1=C\N1CCOCC1	0.7
O=C(Nc1nc(-c2ccc(Cl)cc2)cs1)c1cccnc1	0.4
C=CCn1c(SCC(=O)Nc2nccs2)nnc1-c1cc2cccc(OC)c2o1	1.4
O=C(O)CSc1cccc[n+]1[O-]	0.9
O=C1C2CCCN2C(c2ccncc2)N1c1ccc(Cl)c(Cl)c1 (stereo unspecified)	i
CC(=O)c1cccc(N(CC(=O)N2CCOCC2)S(C)(=O)=O)c1	i
C=CCC(c1ccccc1F)N(CCN1CCOCC1)C(=O)Nc1cccc(Cl)c1 (stereo unspecified)	1.3
Cc1cc(NC(=O)CSc2nc(CCC3CCCC3)nc3ccccc23)no1	i
COc1cccc(N2CCN(C(=O)CN(C)S(=O)(=O)c3ccc4c(c3)CCC(=O)N4)CC2)c1	0.5
CCOC(=O)c1cc(Br)c(=O)n2ccccc12	i
O=C(N1CCOCC1)C12CC3CC(C1)CC(c1ccccc1)(C3)C2	2.7
Cc1ccc2nc(CSc3nc(C)cc(C)c3C#N)[nH]c2c1	0.3
COc1ccc(Oc2c(C)oc3c(CN(C)C)c(O)ccc3c2=O)cc1	i
CCc1ccc2c(c1)C(NC(C)=O)C(=O)N2CC (stereo unspecified)	0.7
CCOC(=O)C1=C(C)OC(N)=C(C(=O)OCC)[C@@]12C(=O)N(CC(N)=O)c1ccccc12	0.3
CCS(=O)(=O)n1nc(-c2ccco2)nc1SC	0.7
O=C(NCC1CCCO1)C1c2ccccc2C(=O)N1C1CCCCCCC1 (stereo unspecified)	0.5
CCOc1cc(S(=O)(=O)N2CCCCC2)ccc1Cl	1.7
The list goes on:
SMILES	H5N1 antiviral
Fc1ccc(Cn2c(SCc3ccc(F)c(F)c3)nnc2C(F)(F)F)cc1	2.4
Cc1ccc(S(=O)(=O)C(F)(F)F)cc1NC(=O)c1cccnc1	i
O=C(Cc1cc(=O)[nH]c(=O)[nH]1)N1CCN(C(=O)c2ccco2)CC1	0.5
Cc1cccc(NC(=O)NCc2ccc3c(c2)cc(C)n3C)c1	0.6
CCOC(=O)C1CCCN(C(=O)c2ccc3c(c2)OCO3)C1 (stereo unspecified)	0.2
O=C(O)C1CCCCC1C(=O)NCCc1cccc(Cl)c1 (stereo unspecified)	i
O=C(NCCCN1CCCC1=O)c1ccc(CNS(=O)(=O)c2ccc(F)cc2)cc1	0.2
Cc1cc(C)nc(SCC(=O)Nc2ccc(N3CCOCC3)c(Cl)c2)n1	0.2
COC(=O)c1ccc2c(=O)n(NC(=O)C(c3ccccc3)c3ccccc3)c(=S)[nH]c2c1	0.9
CCOC(=O)N1CCC(c2cc(=O)n3[nH]c(-c4ccccc4)cc3n2)CC1	1.4
Cc1cc(C)n2ncnc2n1	i
Cn1c(C(=O)NCc2ccc3c(c2)OCO3)cc2sccc21	0.2
CC(C)CCN(C)C1CCN(S(=O)(=O)c2ccc(F)cc2)CC1	i
COC(=O)C1C2C=CC3(CN(C4CCCC4)C(=O)C13)O2 (stereo unspecified)	i
CCOC(=O)C1=C(C)N2C(=C(C#N)[C@@H]1c1ccc(C(=O)OC)cc1)SC[C@@]2(O)C(C)(C)C	i
CC12CC3CC(C)(C1)CC(C(=O)NC1=NCCS1)(C3)C2	i
CC1(C)CC(NS(=O)(=O)c2ccccc2)CC(C)(C)N1	i
CC1=CC(C)C(C(=O)O)C(C(=O)O)C1 (stereo unspecified)	i
COc1ccccc1CNC(=O)C1CCCN(S(=O)(=O)c2cnc[nH]2)C1 (stereo unspecified)	1.7
CCCN1CCN(CCCNC(=O)c2cc3c(=O)n(C)c4ccccc4c3n2C)CC1	12
CCC1(C)Cc2ccccc2-c2nc3n(c(=O)c21)CCCCC3 (stereo unspecified)	3.9
CCOC(=O)c1cnn2c(C(F)(F)F)cc(-c3ccccc3)nc12	1.3
COc1ccc(-c2cc(C(F)F)nc(-n3nc(C)cc3C)n2)cc1	1.5
O=C(NCc1cccc(CNC(=O)c2ccco2)c1)c1ccco1	0.6
CCCCOc1cccc(C(=O)N(Cc2ccco2)C2CCS(=O)(=O)C2)c1 (stereo unspecified)	0.5
Next section
SMILES	H5N1 antiviral
O=C(COC(=O)c1ccc(S(=O)(=O)N2CCc3ccccc3C2)cc1)NC(=O)NCc1ccco1	0.9
COC(=O)c1ccc(Cn2nc(C(F)(F)F)cc2C)cc1	1.3
Cc1ccc(C(=O)O/N=C/c2c(Cl)n(C)c3ccccc23)cc1	i
Cc1nn(-c2cc(N3CCOCC3)ccc2[N+](=O)[O-])c(=O)c2ccccc12	1.7
CC1CCCN(C(C(=O)Nc2ccc(C(C)C)cc2)c2ccc3c(c2)OCO3)C1 (stereo unspecified)	i
Cc1cc(C)n(-c2ccc(C(=O)Nc3nc4ccccc4s3)cc2)n1	i
Nn1c(SCC(=O)N2CCOCC2)nnc1-c1ccccc1Cl	i
Cc1cccc2cc(CN(Cc3ccco3)S(=O)(=O)c3ccc4c(c3)OCCO4)c(=O)[nH]c12	i
Cc1ccc2ncnc(NCCCN3CCOCC3)c2c1	0.6

7 neighbouring compounds from above:
SMILES	H5N1 antiviral
O=C(O)C1CCCCC1C(=O)NCCc1cccc(Cl)c1 (stereo unspecified)	i
O=C(NCCCN1CCCC1=O)c1ccc(CNS(=O)(=O)c2ccc(F)cc2)cc1	0.2
Cc1cc(C)nc(SCC(=O)Nc2ccc(N3CCOCC3)c(Cl)c2)n1	0.2
COC(=O)c1ccc2c(=O)n(NC(=O)C(c3ccccc3)c3ccccc3)c(=S)[nH]c2c1	0.9
CCOC(=O)N1CCC(c2cc(=O)n3[nH]c(-c4ccccc4)cc3n2)CC1	1.4
Cc1cc(C)n2ncnc2n1	i
Cn1c(C(=O)NCc2ccc3c(c2)OCO3)cc2sccc21	0.2

Two records picked at random from those above, as already listed:
SMILES	H5N1 antiviral
CC1CCCN(C(C(=O)Nc2ccc(C(C)C)cc2)c2ccc3c(c2)OCO3)C1 (stereo unspecified)	i
Nn1c(SCC(=O)N2CCOCC2)nnc1-c1ccccc1Cl	i
